Screening data from PubChem BioAssay.
Beta cell apopt: inhibitors of cytokine-induced beta cell apoptosis, primary screen, luminescence; INS-1E cytokine-induced death, ATP luminescence, 48 h; percent of positive-control rescue, neutral wells zero; protection from apoptosis, % (no concentration beside the values); 300,000 compounds, 0.8% hits; AID 435005, 2010;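 active = all replicates at 75% or more, or half of them and the mean; inconclusive = half reach 75% but not the mean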;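 also: 0% = cytokine-treated negative control wells and 100% = positive control rescue; higher means more ATP so stronger rescue from cytokine killing; wells of about 40 µL received 100 nL stock; the first replicate is given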
A1 inh: caspase 3/7 activation in MEF A1-2A-BIM cells, primary screen, A1 inhibitor project, cell-based, luminescence, HTS; Caspase-Glo 3/7 luminescence, 3 h; percent of clofoctol response, vehicle zero; caspase activation, % (test concentration not listed); 330,000 compounds, 0.066% hits; AID 2462, 2010;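 active = over half of replicate activation scores above 10%, or exactly half above 10 with the replicate mean above 10; inconclusive = replicate mean below 10 yet half the replicates above 10; inactive = over half of replicates below 10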;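 also: wells of about 30 µL received 50 nL stock; many hits fall short of the cut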
T cruzi repl: inhibitors of intracellular T. cruzi growth, primary screen, luminescence, NIH3T3 host cells; inhibition, % (no concentration beside the values); 300,000 compounds, 1.4% hits; AID 1885, 2009; T. cruzi beta-gal in NIH3T3, 90 h;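 active = mean inhibition across valid replicates above about 55%, limit read from the data; inconclusive = mean below that limit but half or more replicates reach it; inactive = mean below it, under half of replicates reach it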;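 also: signal also drops with host cell toxicity which is not excluded here; 0% = plate median of DMSO wells and 100% = zero luminescence signal; higher percent means less beta-gal luminescence so fewer parasites; stock transfer was 50 nL into about 50 µL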
MLL AF4-AF9 inh: inhibitors of AF4 peptide binding to AF9, primary screen, biochemical, AlphaScreen, biotin-AF4 peptide, FLAG-AF9, single point; Protein AF-9 (Homo sapiens), P42568; 350,000 compounds, 0.47% hits; AID 651704, 2012; inhibition, % at 10 µM;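 active = every replicate reaching a set inhibition limit, whatever the replicate mean, cut at about 25% in these data; inconclusive = mean inhibition reaches that limit but some replicates miss it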;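 also: 0% = plate neutral control median and 100% = total signal loss; the record names both 10 and 1 µM as test concentration; the first replicate is given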
Target sequence (P42568 whole entry, looked up): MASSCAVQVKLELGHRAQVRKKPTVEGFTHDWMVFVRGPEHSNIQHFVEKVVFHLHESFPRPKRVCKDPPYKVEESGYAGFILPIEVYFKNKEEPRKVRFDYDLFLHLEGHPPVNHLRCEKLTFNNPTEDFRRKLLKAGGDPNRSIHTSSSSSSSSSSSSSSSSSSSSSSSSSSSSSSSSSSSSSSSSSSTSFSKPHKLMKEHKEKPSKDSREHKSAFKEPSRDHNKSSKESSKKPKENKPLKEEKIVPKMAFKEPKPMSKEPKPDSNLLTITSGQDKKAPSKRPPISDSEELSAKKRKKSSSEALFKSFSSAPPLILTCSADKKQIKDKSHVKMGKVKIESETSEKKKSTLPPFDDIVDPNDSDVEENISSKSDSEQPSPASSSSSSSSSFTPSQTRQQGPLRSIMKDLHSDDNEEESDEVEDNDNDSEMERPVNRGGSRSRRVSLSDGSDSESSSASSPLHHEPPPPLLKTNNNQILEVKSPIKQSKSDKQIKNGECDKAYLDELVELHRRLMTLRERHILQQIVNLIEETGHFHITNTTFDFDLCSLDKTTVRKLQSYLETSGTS
Vif TR-FRET: inhibitors of Vif binding to APOBEC3G peptide, primary screen, biochemical, TR-FRET, GST-Vif 1-94, biotin-A3G peptide, dose response retest (AID 1117319); Virion infectivity factor (Human immunodeficiency virus type 1 group M subtype B (isolate …; TR-FRET GST-Vif / biotin-A3G peptide binding; higher % means a stronger effect; test concentration not given here; strong numbers were not always called active; one-dose inhibition, %; IC50 in µM for titrated hits; 260,000 compounds, 0.57% hits;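 active = above the screen mean plus three standard deviations and confirmed in dose response; inconclusive = results disagree or hit not tested in dose response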;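 also: Vif residues 1-94 fused to GST binding biotinylated APOBEC3G peptide 110-148; 0% = full assay without inhibitor and 100% = GST in place of GST-Vif; retest series ran down from 100 µM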
RanGTP-Impb inh: inhibitors of RanGTP-importin-beta interaction, primary screen, biochemical, FRET, CFP-Ran, YFP-importin-beta, homogeneous; cell-free CFP-Ran/YFP-importin-beta FRET ratio; inhibition, % (no concentration beside the values); 300,000 compounds, 1.1% hits; AID 2216, 2009;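 active = most replicates above 15%; inconclusive = exactly half above 15%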;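 also: 0% = DMSO wells and 100% = Ran loaded with GDP instead of GTP; wells of about 40 µL received 100 nL stock; the first replicate is given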
Calb FLC: C. albicans growth inhibition with fluconazole, primary screen, CaCi-2 strain, Alamar Blue fluorescence. C. albicans CaCi-2 (fluconazole-resistant clinical isolate) + fluconazole, 48 h. growth inhibition, % (test concentration not listed). 300,000 compounds, 0.57% hits. AID 1979, 2009;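 active = most replicates above 75%; inconclusive = exactly half above 75%; inactive = most below 75%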;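 also: all wells also contain fluconazole at 8 µg/ml as a sub-toxic cotreatment; 0% = median of DMSO wells and 100% = median of geldanamycin control wells; wells of about 8 µL received 7.5 nL stock; the first replicate is given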
Ecoli rRNA inh: reduced GFP signal of wild-type E. coli, primary screen, bacterial rRNA inhibitor project, GFP/RFP fluorescence, OD600, single point; E. coli WT GFP vs humanized-ribosome RFP mutants, 24 h; hits give low values; DMSO median 0, no signal -100; GFP signal change (wild-type ribosome), % (test concentration not listed); 350,000 compounds, 1.6% hits;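 active = significant combined selectivity score with lowered wild-type GFP, culture density cut under 30%, mutant RFP and density less affected; inactive = any of these conditions unmet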; also: one replicate is shown; some compounds called inactive have numbers as strong as hits
Ecoli rRNA inh OD600: also measured in Ecoli rRNA inh; calls as there; OD600 change, %; measured here: OD600 growth;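 optical density of the mix in the first replicate; 0 = DMSO median and -100 = no signal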
Ecoli rRNA inh RFP: also measured in Ecoli rRNA inh; calls as there; RFP signal change, %; measured here: RFP humanized mutant strains;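 first replicate; 0 = DMSO median and -100 = no signal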
The depositor's hits bear a star; ? = inconclusive; · = not tested or not shown; & = joins results of further samples. The list is partial. The share of hits here may be higher or lower than overall.

mol,Beta cell apopt,A1 inh,T cruzi repl,MLL AF4-AF9 inh,Vif TR-FRET,RanGTP-Impb inh,Calb FLC,Ecoli rRNA inh,Ecoli rRNA inh OD600,Ecoli rRNA inh RFP
COc1ccc(OC(C)C(=O)Nc2ccc([N+](=O)[O-])cc2)cc1 (stereo not given),-2,0.7,-6,2.3,·,0.8,-16,6,3,4.1
Cc1nc2ccc(S(=O)(=O)NC(CC(C)C)C(=O)O)cc2s1 (stereo not given),·,0.1,-6,·,19%,-1.0,-1,·,·,·
COc1cc(/C=N/NC(=O)c2ccccn2)ccc1OC(=O)c1cccs1,-3,-3.6,-10,2.2,1%,2.6,31,-13,-14,4.2
CC(=O)Nc1ccc(NC(=O)C(=O)NCC(c2ccco2)N2CCc3ccccc32)cc1 (stereo not given),·,32*,12,12,·,-2.1,-16,-2,8,-0.3
CC1CCc2c(sc3[nH]c(=S)n(C)c(=O)c23)C1 (stereo not given),5,0.4,-3,-3.4,3%,3.9,70,-14,-16,-7.6
CN1CCN(CCOc2ccc(Cl)c(Cl)c2)CC1,-6,0.2,56*,·,·,3.6,0,·,·,·
COc1nc(OCCNC(=O)Nc2ccccc2)nc(N(C)C)n1,5,0.4,-14,·,-4%,1.1,-9,·,·,·
COc1ccc(C2CC(=O)C(C(c3ccc(O)cc3)C3C(=O)CC(c4ccc(OC)cc4)CC3=O)C(=O)C2)cc1 (stereo not given),7,0.2,7,·,·,1.1,11,·,·,·
Cn1cc(/C=N/NC(=O)c2cc3cc(Br)ccc3o2)c2ccccc21,0,-0.1,10,·,-8%,5.4,-5,1,10,0.1
Cc1ccc(S(=O)(=O)CC(O)CN2CCCC2=O)cc1 (stereo not given),-2,0.3,-13,·,5%,-1.4,-11,·,·,·
COc1cc(/C=N/NC(=O)CCNC(=O)c2ccccc2Cl)ccc1O,1,0.2,-2,-4.0,-4%,4.1,-1,17,19,3.1
CCSc1nsc(NC(=O)Nc2ccccc2F)n1,19,-5.0,-1,3.2,·,-0.7,-3,-17,-15,-2.8
COc1ccccc1CNC(=O)CCS(=O)(=O)c1ccc2c(c1)CCCN2C(C)=O,-2,0.0,-1,·,8%,6.7,1,·,·,·
CSc1nnc(C)c(=O)n1COC(=O)COc1ccc2ccccc2c1,0,-0.1,9,·,11%,3.6,-4,·,·,·
COc1ccc(-c2cc3nc(C)cc(N4CC(C)CC(C)C4)n3n2)cc1 (stereo not given),-6,-0.3,·,·,-1%,2.7,-5,·,·,·
CC(NC(=O)NC12CC3CC(CC(C3)C1)C2)C1CCCO1 (stereo not given),0,0.9,-10,·,-4%,5.4,15,·,·,·
C/C(CC(=O)Nc1cccc(Cl)c1C)=N\NC(=O)C(=O)NCC(C)C,-1,-0.5,8,·,-2%,-2.0,-3,·,·,·
CN(CC(=O)Nc1ccc(C#N)cc1)Cc1ccc(Cl)cc1Cl,-1,-1.7,7,·,3%,-0.9,1,·,·,·
CCOc1cc(CNCc2ccccn2)ccc1OCC(=O)NC(C)(C)C,-6,1.2,1,·,23%,-2.0,1,·,·,·
CC(c1ccco1)N(Cc1ccco1)C(=O)Nc1ccccc1 (stereo not given),3,-0.3,-9,·,-1%,6.7,0,·,·,·
Cc1ccc2cccc(S(=O)(=O)N3CCN(c4ccccc4F)CC3)c2n1,-10,0.4,-2,-0.7,76%,3.1,-3,-27,-5,32
Nc1nc(SCC(=O)Nc2ccc(OC(F)(F)F)cc2)[nH]c(=O)c1NC(=O)c1ccc(Br)o1,10,-1.0,-6,-2.2,3%,·,·,7,11,1.3
COc1ccc(NC(=O)c2cc(C(=O)Nc3ccc(OC)cc3OC)cc([N+](=O)[O-])c2)c(OC)c1,-3,1.5,14,2.2,·,5.4,-12,4,2,-1.3
COc1ccc(N(Cc2ccc(N(C)C)cc2)C(=O)c2ccc(S(C)(=O)=O)cc2)cc1,0,0.0,19,1.0,-4%,-4.1,-2,-6,-3,-5.6
C=Cc1cccc(NC(=O)COc2ccccc2)c1,-7,-0.8,-14,·,-5%,2.4,-15,·,·,·
COc1ccc(NC(=O)CN2C(=O)CSC(C)C2=O)c(OC)c1 (stereo not given),-2,0.5,-6,-0.4,·,?,-13,15,0,-1.2
O=C(CCCn1cnc([N+](=O)[O-])n1)Nc1cc(Cl)ccc1O,1,0.4,31,-0.9,7%,-2.4,4,11,5,0.6
CCCC(C)NC(=O)c1sc2nc3n(c(=O)c2c1C)CCC3 (stereo not given),0,0.4,3,-0.1,-3%,-1.2,30,-2,6,2.7
CCc1ccccc1NC(=O)C1CCCN(c2nn3c(=O)cc(C)nc3s2)C1 (stereo not given),-1,-1.4,4,-2.1,·,-3.0,-8,11,15,0.2
COc1cc(NS(=O)(=O)c2ccccc2)ccc1-n1nc(C)cc1C,1,-0.8,-19,·,?,8.3,-1,·,·,·
C=CCNC(=S)NNC(=O)c1ccc([N+](=O)[O-])cc1,-3,0.2,9,-1.7,·,-0.6,27,9,16,-3.2
COc1cccc(Cn2c(-c3cccs3)noc2=O)c1,0,-0.3,-2,·,4%,4.7,-11,·,·,·
Cc1ccc2cc(C(c3nnnn3Cc3ccccc3)N3CCN(c4ccccc4)CC3)c(=O)[nH]c2c1 (stereo not given),3,-0.3,-9,·,19%,-3.2,8,-13,-8,3.9
CCC(=O)N1c2ccc(S(=O)(=O)NCc3ccco3)cc2CC1C (stereo not given),1,-0.3,2,-3.6,·,2.5,3,-4,-6,4.1
N#Cc1cccc(NC(=O)Cn2c3[n+](c4ccc(C(F)(F)F)cc42)CCCCC3)c1,-7,0.2,-24,-1.4,·,2.3,-3,7,5,3.3
CC1Cc2ccccc2N1Cc1ccc([N+](=O)[O-])cc1 (stereo not given),3,0.8,-4,10,13%,0.7,5,1,-2,-0.2
CCCNC(=O)N1CCC(C(=O)c2ccc(Cl)cc2)CC1,-1,-0.3,-30,·,3%,-0.5,-10,·,·,·
Cc1sc2nc(SCC(=O)N(C)C)[nH]c(=O)c2c1C,-2,-0.1,-2,·,9%,2.3,0,·,·,·
C[C@H]1CNC(=O)C(=O)N1C[C@H](Cc1ccc(O)cc1)NC(=O)CC12CC3CC(CC(C3)C1)C2,-1,0.0,-4,·,·,11,3,13&5,9&10,0.4&-2.3
O=C1NCCCC1C(=O)N/N=C/c1ccccc1 (stereo not given),-3,0.1,-20,·,-1%,3.1,1,·,·,·
Cc1cc(C)cc(C(=O)OCC(=O)NC(=O)NC2CCCC2)c1,-10,0.3,·,-2.5,·,·,·,-22,-67,13
Cc1ccc2cc3cc(C(=O)NCc4ccc5c(c4)OCO5)oc3nc2c1,·,·,-6,·,-9%,3.3,3,·,·,·
N[C@@H](CO)c1nnc([C@H](CC(=O)O)NC(=O)C2CCNCC2)o1,-8,0.1,-7,-5.2,-9%,0.1,-11,12,6,0.0
NC(=O)N/N=C1\c2ccccc2-c2c(C(N)=O)cccc21,2,1.7,1,-26,2%,1.3,1,-4,-4,6.2
O=C(CN1CCOCC1)Nc1ncc(Cc2cccc(Cl)c2)s1,-1,0.4,6,-0.1,-7%,-1.9,-6,0,-21,-1.7
O=C(NCCc1nccs1)C1CCC(=O)N(CCc2ccc(Cl)cc2)C1 (stereo not given),0,0.4,1,-0.3,·,2.7,-1,7,7,-2.1
CCOC(=O)c1c(S(=O)(=O)NCC(=O)NCc2ccc(C)cc2)c(C)n(C)c1C,-2,-0.4,-10,-0.1,·,-1.1,2,8,11,0.6
O=C(CCN1C(=O)CSC1=O)Nc1ccccc1,-3,0.4,-17,·,1%,1.8,1,·,·,·
COc1ccc(NC(=O)COC(=O)CN2C(=O)C3CCCCC3C2=O)cc1OC (stereo not given),-2,0.5,·,-2.2,-8%,·,·,6,14,-2.7
Cn1c(=O)c2c(ncn2CC(O)CO)n(C)c1=O (stereo not given),7,?,-3,-3.3,1%,-3.4,1,13,8,2.1
CCOc1nnc(C)c2c(C)n(-c3cccc(OC)c3)nc12,-4,0.2,-8,·,-4%,-1.6,-7,·,·,·
COc1ccc(NC(=O)C2CCN(C(=O)C3CC(=O)N(c4ccc(C)cc4)C3)CC2)c(OC)c1 (stereo not given),2,-0.2,-3,-0.4,7%,-1.4,0,·,·,·
CC1=CCC2C(=O)N(c3ccc(C)c(Br)c3)C(=O)C2C1 (stereo not given),0,0.1,1,-1.8,7%,?,-4,-2,-7,3.3
Cn1nc(-c2ccccc2)cc1NC(=O)Nc1ccc(F)cc1,3,-0.3,-7,-1.8,1%,5.8,0,-40*,-12*,2.2*
COc1ccccc1/C=N/NC(=O)c1ccc(NC(=O)c2ccccc2Br)cc1,·,-0.9,-7,4.0,1%,-2.4,1,1,0,-2.2
CCOCCCNC(=O)c1ccc2nc(-c3ccc(OC)c(OC)c3)c(-c3ccc(OC)c(OC)c3)nc2c1,5,0.5,18,-2.0,0%,-2.2,12,5,5,4.6
O=C(O)CSCC(=O)NC1CCCc2ccccc21 (stereo not given),-14,1.9,-8,-1.8,-2%,-2.8,5,18,14,1.7
O=C(c1ccc(Br)s1)N1CCN(c2ncccn2)CC1,1,-0.2,-6,·,-2%,4.9,12,·,·,·
CN(C(=O)c1ccc(S(=O)(=O)N2CCOCC2)cc1)C1CCS(=O)(=O)C1 (stereo not given),·,0.9,-10,-22,0%,1.3,0,7,12,0.0
Cc1ccnc2nc(C(=O)OCC(=O)N(CC(C)C)C3CCS(=O)(=O)C3)nn12 (stereo not given),-5,1.1,·,-0.8,3%,·,·,9,16,-2.0

Additional records.
mol,Beta cell apopt,A1 inh,T cruzi repl,MLL AF4-AF9 inh,Vif TR-FRET,RanGTP-Impb inh,Calb FLC,Ecoli rRNA inh,Ecoli rRNA inh OD600,Ecoli rRNA inh RFP
O=C(c1ccc(Cl)c(S(=O)(=O)N2CCCC2)c1)N1CCN(c2ncccn2)CC1,-7,-0.6,13,0.0,5%,0.4,13,0,-6,-0.6
COc1ccccc1NC(=O)CSc1nc(=O)n(Cc2ccncc2)c2c1CCCC2,·,0.0,-2,4.1,8%,6.1,6,2,-1,-0.3
C=CCNC(=S)NNC(=O)c1ccc(OCC(C)C)cc1,0,-0.1,-3,12,6%,5.4,11,-22,-26,33
O=C1C(=O)N(CCN2CCOCC2)C(c2cccnc2)/C1=C(/O)c1ccc(Cl)cc1 (stereo not given),1,0.8,-26,-3.4,-9%,1.2,-7,13,7,2.2
